Compound activity deposited in PubChem by National Center for Advancing Translational Sciences (NCATS).
Apoferritin bind: qHTS Assay for Identification of Novel General Anesthetics; Potency, µM (doses to about 77.5 µM), for the others: at the highest dose activity change, negative = displacement, hits mostly inhibitors; apoferritin/1-aminoanthracene competitive binding, fluorescence; Ferritin light chain (Equus caballus), P02791; AID 485281, 2010; 0.074% of 350,000 active; also: potency is read from the fitted curve at half-maximal effect; % is scaled to controls: 0 for no effect and ±100 for the full control effect; nearly all actives have a fitted effect of over 20% in size
Target sequence (P02791 2-175 limits assumed): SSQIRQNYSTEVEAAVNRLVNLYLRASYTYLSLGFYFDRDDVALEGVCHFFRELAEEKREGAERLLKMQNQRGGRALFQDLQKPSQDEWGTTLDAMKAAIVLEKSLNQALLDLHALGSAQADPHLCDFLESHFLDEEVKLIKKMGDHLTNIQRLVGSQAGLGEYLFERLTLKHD
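10 uM apoferritin + 50% sat. 1-AMA, PBS; cpd 10 min RT; Ex380/Em535 endpoint; normalized to free probe vs complex; 4-param Hill fit; propofol titration as pos. ctrl.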
ERG Ets-DNA blk: qHTS for Small Molecule Inhibitors of the ERG Ets/DNA interaction | Potency, µM (top dose mostly 76.9 µM), for inactives: at the top dose FP activity, negative = inhibition, most hits filed as inhibitors | 0.028% of 370,000 active | Transcriptional regulator ERG (Homo sapiens), P11308 | fluorescence polarization, His-ERG Ets domain / labelled DNA; active = well fitted inhibition curve with a large enough effect in the polarisation, with a control signal flat; inconclusive = small, poorly fitted or top-dose-only effect, or effect the other way, or a change in a side signal; inactive = no such curve, though single readings can be large or run the other way; the % refers to the polarisation;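 also: polarization taken with two DNA probes labelled with fluorescein and Texas red; potency is read from the fitted curve at half-maximal effect; % of control where 0% means no effect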
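His-tagged ERG Ets domain (1 uM in the protein solution; 300mM KCl, 50mM Tris-HCl, 1mM EDTA, 1mM DTT, pH 7.5) received compound, then a probe mix of 5 nM fluorescein-DNA and 100nM Texas-615-DNA. Fluorescence polarization was read for both dyes.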
Pol kappa inh: qHTS for Inhibitors of Polymerase Kappa; DNA polymerase kappa (Homo sapiens), Q9UBT6; purified Pol kappa, fluorescent DNA synthesis assay, 10 min; Potency, µM (highest dose often 107 µM), for the others: at the highest dose activity, negative = inhibition, usual class: inhibitors; 0.53% of 400,000 active; AID 588579, 2011; also: potency is read from the fitted curve at half-maximal effect; % is scaled to controls: 0 for no effect and ±100 for the full control effect
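Fluorescent qHTS in 1536-well format: enzyme (10 nM) and compound sat 15 min at room temperature before 50 nM substrate (final) was added. Signal taken at 0 and 10 min; no-enzyme buffer wells were negative controls.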
TRHR ag: qHTS for Small Molecule Agonists and Allosteric Enhancers of Human TRH Receptor: Primary Screen for Agonists; activation, % at 2 µM; Thyrotropin-releasing hormone receptor (Homo sapiens), P34981; TRHR cells, calcium flux fluo-8, FDSS agonist mode; 0.18% of 360,000 active; in the data active = activation above about 30%; also: 0% is about no effect
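Agonist-mode FDSS calcium read (Ex 480/Em 530, 1 s cycles) in 1536-well TRHR cells with fluo-8 dye, after 10-cycle baseline and 23 nL compound addition; TRH at EC20 (10 nM final) added afterwards for the enhancer phase.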
BLM helicase inh: qHTS Assay for Inhibitors of Bloom's syndrome helicase (BLM) | RecQ-like DNA helicase BLM (Homo sapiens), P54132 | recombinant BLM DNA unwinding, fluorescence dequenching | Potency, µM (doses to about 56.1 µM), for the others: at the top dose activity change, negative = inhibition, most hits filed as inhibitors | 0.2% of 350,000 active | AID 2528, 2010;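 also: potency is read from the fitted curve at half-maximal effect; plate controls were vehicle for no effect and no enzyme for full effect; nearly all actives have a fitted effect of over 35% in size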
12-LOX inh: Primary qHTS assay for inhibitors of human arachidonate 12S-lipoxygenase (ALOX12): Round 2 | 1.1% of 580,000 active | purified 12hLO, xylenol orange hydroperoxide absorbance | Polyunsaturated fatty acid lipoxygenase ALOX12 (Homo sapiens), P18054 | Potency, µM (highest dose often 108 µM), for the others: top-dose activity change, negative = inhibition, actives largely listed as inhibitors; also: potency is read from the fitted curve at half-maximal effect; % is scaled to controls: 0 for no effect and ±100 for the full control effect
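Purified human 12hLO at 150 nM in 25 mM Hepes, 0.01% Triton X-100, pH 7.0, preincubated 15 min at room temperature with compound. Reaction started with 40 uM arachidonic acid, 30 min at room temperature. Hydroperoxide measured by Fe-xylenol orange, 573/405 nm absorbance ratio.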
Pol iota inh: qHTS for Inhibitors of Polymerase Iota; DNA polymerase iota (Homo sapiens), Q9UNA4; Pol iota fluorescent replication assay, 10 min; Potency, µM (series often up to 115 µM), without a hit: at the highest dose activity, negative = inhibition, most hits filed as inhibitors; 1% of 390,000 active; also: potency is read from the fitted curve at half-maximal effect
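Fluorescent replication assay read twice, at 0 min and 10 min after adding 50 nM (final) substrate. Enzyme (10 nM) and compounds were first incubated 15 min at room temperature; enzyme-free buffer wells were negative controls.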
The depositor's hits bear a star; u = inconclusive; x = no result given; [ ] = dose if it differs, or a comment. Unless noted, calls follow the shape of the dose curve; as a rule, active = well fitted curve in the direction sought with a large enough effect; inconclusive = small, poorly fitted or top-dose-only effect, or another doubt; inactive = no such curve, though single readings can be large; an effect the other way counts as inactive or inconclusive.

item | Compound | Pol iota inh | ERG Ets-DNA blk | TRHR ag | 12-LOX inh
1 | CC1=N/C(=C\c2ccc(OC(C)C)cc2)C(=O)N1c1ccc(C(=O)O)cc1 | -17% | 3% | 0.0 | -3%
2 | COc1ccc(/C=C/C(=O)OCC(=O)c2ccc3c(c2)NC(=O)CO3)c(OC)c1 | 6% | -3% | -0.7 | 8%
3 | CC(C)N1CCN(Cc2cccc(-c3ccco3)c2)CC1CCO (stereo not drawn) | 41%[activator] | 9% | -0.2 | 4%
4 | Cc1cccc(-n2c(SCC(N)=O)nnc2-c2ccco2)c1 | 0% | -10% | 0.4 | u
5 | COc1ccc(C2/C(=C(/O)c3ccccc3)C(=O)C(=O)N2C)cc1OC (stereo not drawn) | 9% | 3% | -0.7 | -18%
6 | CCOC(=O)c1c(NC(=O)C2COc3ccccc3O2)sc(C)c1C (stereo not drawn) | 7% | -1% | 0.9 | 0%
7 | Cc1nc2cc(NC(=O)N(C)c3ccc4ccccc4c3)ccc2o1 | 39%[activator] | x | -0.3 | 18%

item | Pol kappa inh | Apoferritin bind | BLM helicase inh
1 | 5%[60.1 µM] | -12% | 5%
2 | 10% | 7% | -1%
3 | -7% | 3% | -12%
4 | -6% | -4% | 0%
5 | -21% | -10% | -4%
6 | -6% | -5% | -2%
7 | -19% | -17% | 0%

Grouped by structure, the entries above with a carbonyl joined to an NH by a bond outside any ring (3)
item | Compound | Pol iota inh | ERG Ets-DNA blk | TRHR ag | 12-LOX inh
4 | Cc1cccc(-n2c(SCC(N)=O)nnc2-c2ccco2)c1 | 0% | -10% | 0.4 | u
6 | CCOC(=O)c1c(NC(=O)C2COc3ccccc3O2)sc(C)c1C (stereo not drawn) | 7% | -1% | 0.9 | 0%
7 | Cc1nc2cc(NC(=O)N(C)c3ccc4ccccc4c3)ccc2o1 | 39%[activator] | x | -0.3 | 18%

item | Pol kappa inh | Apoferritin bind | BLM helicase inh
4 | -6% | -4% | 0%
6 | -6% | -5% | -2%
7 | -19% | -17% | 0%

Entries of single compounds as entered above:
Profile of Cc1cccc(-n2c(SCC(N)=O)nnc2-c2ccco2)c1 = Pol iota inh = 0%; ERG Ets-DNA blk = -10%; TRHR ag = 0.4; 12-LOX inh = u; Pol kappa inh = -6%; Apoferritin bind = -4%; BLM helicase inh = 0%
Profile of COc1ccc(C2/C(=C(/O)c3ccccc3)C(=O)C(=O)N2C)cc1OC (stereo not drawn) = Pol iota inh = 9%; ERG Ets-DNA blk = 3%; TRHR ag = -0.7; 12-LOX inh = -18%; Pol kappa inh = -21%; Apoferritin bind = -10%; BLM helicase inh = -4%

Along the list, quoted from above.
12-LOX inh, compounds 1 to 7, in order: -3%, 8%, 4%, u, -18%, 0%, 18%

A portion of the library; count on the stated rates, not on these rows.
